# Cruzain Triton: qHTS Assay for Promiscuous and Specific Inhibitors of Cruzain (with detergent); Cruzipain (Trypanosoma cruzi), P25779; purified cruzain, Z-FR-AMC fluorescence, 0.01% Triton; Potency, µM, without a hit: max response, negative = inhibition, hits mostly inhibitors; 200,000 compounds, 0.43% hits; AID 1478, 2009; active means well fitted curve in the direction sought with a large enough effect; inconclusive means small, poorly fitted or top-dose-only effect, or another doubt; inactive means no such curve, though single readings can be large; an effect the other way counts as inactive or inconclusive;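 further: plate controls were neutral wells for no effect and buffer without enzyme for full effect; nearly all actives have a fitted effect of over 40% in size; top concentration of the series not given in the record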
# Target sequence (P25779 123-467 limits assumed): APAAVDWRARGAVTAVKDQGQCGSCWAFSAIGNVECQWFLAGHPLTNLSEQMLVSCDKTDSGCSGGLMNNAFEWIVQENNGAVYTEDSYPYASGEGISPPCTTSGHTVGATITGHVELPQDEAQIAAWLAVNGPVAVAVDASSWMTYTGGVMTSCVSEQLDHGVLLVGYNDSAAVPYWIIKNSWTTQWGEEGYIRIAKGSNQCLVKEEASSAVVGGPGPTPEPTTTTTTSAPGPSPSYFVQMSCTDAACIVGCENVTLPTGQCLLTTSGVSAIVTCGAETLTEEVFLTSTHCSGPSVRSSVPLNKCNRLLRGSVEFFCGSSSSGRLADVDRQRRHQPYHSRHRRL
#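 Detergent-containing run (0.01% Triton X-100) in acetate buffer pH 5.5 with 5 mM DTT: enzyme at 1.5 nM final, 15 min compound preincubation at room temperature, then 2 uM Z-FR-AMC substrate. Activity taken as 60 s fluorescence increase at 360/450 nm.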
# SARS PLP yeast: qHTS of Yeast-based Assay for SARS-CoV PLP; S. cerevisiae expressing SARS-CoV PLpro, growth rescue; control for the full effect not named in the record; Potency, µM (highest dose often 32.9 µM), without a hit: top-dose activity, positive = growth rescue; 330,000 compounds, 0.19% hits; further: 0% is about no effect; nearly all actives have a fitted effect of over 55% in size; growth read by luminescence after 48 h
# Lassa entry inh: qHTS for Inhibitors of binding or entry into cells for Lassa Virus | Lassa virus pseudotype entry inhibition, cell reporter; control for the full effect not named in the record | Potency, µM (titrated, usually from 37.9 µM), for inactives: top-dose activity change, negative = inhibition, hits mostly inhibitors | 300,000 compounds, 1.2% hits; active means well fitted inhibition curve with a large enough effect; inconclusive means small, poorly fitted or top-dose-only effect, or effect the other way; inactive means flat fitted curve, though single readings scatter; tested in HEK293 cells; further: on the % scale 0 is the no-effect control and ±100 the full control effect; nearly all actives have a fitted effect of over 50% in size; luciferase read-out
# StopGo reporter: High Throughput Screening for Foot and Mouth Disease Virus Antivirals; 410,000 compounds, 1.2% hits; human cells with a luciferase reporter of 2A StopGo recoding; control for the full effect not named in the record; Potency, µM (top dose mostly 57.9 µM), for inactives: top-dose signal change, negative = less light; AID 1159524, 2015; active = well fitted falling curve with a large enough effect; inconclusive = small, poorly fitted or top-dose-only effect; inactive = no such curve, though single readings can be large or run the other way; tested in HEK293T cells; further: on the % scale 0 is the no-effect control and ±100 the full control effect; nearly all actives have a fitted effect of over 45% in size; luciferase light after 4 h
# RE007 growth inh: qHTS Assay for Inhibitors of the HIV-1 protein Vpr | AID 651644, 2012 | 360,000 compounds, 0.21% hits | Potency, µM (series often up to 92.2 µM), for the others: top-dose activity change, negative = less growth | S. pombe RE007 Vpr strain, BacTiter-Glo ATP luminescence, 24 h; control for the full effect not named in the record; active = well fitted falling curve with a large enough effect; inconclusive = small, poorly fitted or top-dose-only effect; inactive = no such curve, though single readings can be large or run the other way;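 further: on the % scale 0 is the no-effect control and ±100 the full control effect; nearly all actives have a fitted effect of over 50% in size; the assay follows cell death caused by Vpr and the record does not say whether a fall means rescue or toxicity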
#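 Fission yeast strain RE007, carrying one chromosomally integrated HIV-1 vpr copy, was seeded at OD 0.01 in PMG+AL medium with 23 nL pinned compound. After 24 h at 30 °C and 99% humidity, viability was read by BacTiter-Glo luminescence.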
# Marburg entry inh: qHTS for inhibitors of binding or entry into cells for Marburg Virus | Potency, µM (titrated, usually from 37.8 µM), inactives show at the highest dose activity change, negative = inhibition, usual class: inhibitors | Marburg virus pseudotyped entry inhibition, cell reporter; control for the full effect not named in the record; about a third of the inactives were read at about 46 µM | 300,000 compounds, 1.8% hits; active = well fitted inhibition curve with a large enough effect; inconclusive = small, poorly fitted or top-dose-only effect, or effect the other way; inactive = flat fitted curve, though single readings scatter; tested in HEK293 cells; about a fifth of its hits are not listed in these tables; further: on the % scale 0 is the no-effect control and ±100 the full control effect; luciferase read-out
# Cruzain noTriton: qHTS Assay for Promiscuous and Specific Inhibitors of Cruzain (without detergent); purified cruzain, Z-FR-AMC fluorescence, no detergent; Potency, µM, for the others: max response, negative = inhibition, actives largely listed as inhibitors; 200,000 compounds, 2.3% hits; active means well fitted curve in the direction sought with a large enough effect; inconclusive means small, poorly fitted or top-dose-only effect, or another doubt; inactive means no such curve, though single readings can be large; an effect the other way counts as inactive or inconclusive;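 further: plate controls were enzyme without inhibitor for no effect and buffer without enzyme for full effect; nearly all actives have a fitted effect of over 40% in size; top concentration of the series not given in the record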
#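 Detergent-free condition (0.00005% Triton X-100) in acetate buffer pH 5.5 with DTT. 1.5 nM enzyme and compound were pre-mixed 15 min, then 2 uM Z-FR-AMC substrate added; reaction progress from fluorescence change between first and third reads (60 s).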
# NS1 function inh: qHTS Assay for Inhibitors of Influenza NS1 Protein Function. 270,000 compounds, 0.4% hits. S. cerevisiae slowed by influenza A NS1, growth recovery by OD600. AID 2326, 2010. Potency, µM (doses to about 46.1 µM), for inactives: top-dose activity, positive = more growth; further: actives are rising curves; nearly all actives have a fitted effect of over 50% in size
#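 Read-out: OD600 growth recovery of NS1-expressing budding yeast. Cells grown overnight at 30C in -URA glucose medium, washed, resuspended and diluted 1:100 in 2% galactose assay medium, pH 6.0. Same strain lacking NS1 served as positive control.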
# Active calls of the source: *; ? = inconclusive; / = not tested or not shown; & = joins results of further samples; [ ] = remark or other dose. Unless noted, the call rests on the fitted dose curve; in most records, active means well fitted rising curve with a large enough effect; inconclusive means small, poorly fitted or top-dose-only effect; inactive means no such curve, though single readings can be large or run the other way. Potency means the concentration at half of the fitted maximal effect. Compounds were not picked by outcome. About 4.5% of those tested had a hit in this group.
SMILES,Cruzain Triton,SARS PLP yeast,Lassa entry inh,StopGo reporter,RE007 growth inh,Marburg entry inh,Cruzain noTriton,NS1 function inh
Cc1c(C(=O)OCC(=O)Nc2ccc(S(N)(=O)=O)cc2)oc2c1ccc1ccccc12,/,0.6%,?,-8.8%,-1.5%,?,/,5.6%
COc1cccc(NC(=S)NNC(=O)CCn2cc([N+](=O)[O-])cn2)c1,/,-0.7%,1.3%,6.0%,24.0%,1.3%[46.1 µM],/,3.1%
O=C(CSc1ccc(-c2ccccn2)nn1)Nc1cccc(F)c1,/,-14.3%,?,-6.1%,?,?,/,-104.9%
CC(C)CCNC(=O)CN1C(=O)CSc2ccc(S(=O)(=O)N3CCCCC3)cc21,-0.1%,/,4.9%[46.1 µM],-9.6%,/,/,-17.6%,/
CCc1ccc(N2C(=O)CN(Cc3ccccc3)C2=S)cc1,/,-4.8%,/,-16.8%,11.3%,/,/,-4.0%
Cc1cccc(C)c1NC(=O)NC1(C(=O)NCC2CCCO2)CCCCC1 (configuration not stated),/,6.1%,-7.7%[46.1 µM],-13.7%,1.4%,-3.5%[46.1 µM],/,3.9%
CCOc1ccc(C2c3c(oc4ccccc4c3=O)C(=O)N2CCCN2CCOCC2)cc1 (configuration not stated),4.2%,9.0%,-1.6%,5.8%,-12.5%,1.2%,-16.1%,?
CCOc1ccc(/C(C)=N/NC(=O)c2nnn(-c3nonc3N)c2-c2cccs2)cc1,/,-1.1%,/,-7.6%,-4.6%,/,/,3.5%
CN(C)CCNc1nc2sc3c(c2c(=O)n1Cc1ccccc1)CCCCC3,/,-0.7%,7.7%,-7.3%,12.3%,10µM*,/,-5.7%
COCCN1C(=O)C(=O)/C(=C(/O)c2ccc(OC(C)C)cc2)C1c1cccnc1 (configuration not stated),-9.8%,4.6%,18.7%,/,-3.1%,20.1%,-16.2%,2.4%
Cc1ccc2nc(SCC(=O)NC3CCCC3)nc(=O)n2c1,/,1.6%,-5.0%,-15.9%,1.3%,24.8%,/,/
COc1cc(Cl)c(C)cc1NC(=O)c1nn(-c2ccc(C)cc2)c(=O)n(C)c1=O,0.0%,/,4.2%[46.1 µM],-14.2%,/,/,-1.9%,/
CSc1nc2n(n1)C(c1cccc(F)c1)C(C(=O)Nc1ccc(C)cc1C)=C(C)N2 (configuration not stated),8.2%,-4.8%,-0.8%,2.4%,30.9%,-12.0%,10µM*,-1.2%
CC1(C)Cc2cccc(OCC(=O)N3CCN(S(=O)(=O)c4ccccc4)CC3)c2O1,3.0%,3.7%,?,?,16.7%,?,20.9%,-16.5%
N#CC1=C(N)NC(SCC(=O)c2ccc(Cl)cc2)=C(C#N)C12CCCC2,-13.6%,-7.2%,-6.4%,/,10.2%,-18.8%,?,4.4%
CCCN(CCC)c1nc(N)c(C#N)c(CC#N)c1C#N,-5.8%,5.2%,-3.7%,-18.3%,4.8%,?,-14.9%,11.2%
COc1ccc(Cl)cc1S(=O)(=O)N1CCN=C1c1ccccc1,/,3.8%,19.7%,9.5%,5.2%,4.3%,/,9.5%
CC1(c2ccc3ccccc3c2)CCC(=O)O1 (configuration not stated),/,/,-3.1%[46.1 µM],-3.8%,8.8%,5.7%,/,/
COC(=O)c1sccc1N/N=C/c1cccc(Oc2ccccc2)c1,-5.4%,2.6%,?,9.2%,-5.6%,-21.6%,?,7.3%
COc1ccc(/C=N/NC(=O)c2ccoc2C)cc1CN1CCN(c2ccc(F)cc2)CC1,/,0.1%,/,-6.7%,-6.8%,/,/,-4.9%
COc1cc2c(cc1OC)-c1nnnn1C(C)(C)C2,-2.9%,0.2%,2.4%,-16.8%,-6.4%,-1.2%,-5.4%,-10.5%
CN(N)c1ccc2c(C(F)(F)F)cc(C(F)(F)F)nc2n1,/,-0.3%,10.9%,-4.5%,-7.4%,22.9%[46.1 µM],/,6.5%
CCOc1cc2[nH]c(=S)n(Cc3ccc(C(=O)N4CCN(C)CC4)cc3)c(=O)c2cc1OCC,/,1.7%,/,-6.5%,-5.2%,/,/,3.8%
CCCNc1nc(C)cc(-c2cc(-c3ccc(Cl)cc3)on2)n1,/,0.5%,/,-4.2%,-15.8%,/,/,-0.1%
COc1cccc(NC(=O)c2sc3nc4n(c(=O)c3c2C)CCC4)c1,-4.0%,8.1%,?,2.0%&5.8%,12.3%,/,-7.8%,-8.2%
CS(=O)(=O)N(CC(=O)N1CCCCC1)Cc1ccccc1,/,1.4%,4.7%[46.1 µM],-18.8%,10.3%,3.1%[46.1 µM],/,7.4%
COc1nc(-c2ccccc2Cl)ccc1C#N,-2.7%,-7.8%,-7.1%,-0.3%,-5.0%,-3.9%,-7.3%,-8.0%
CCOC(=O)COc1nc(C)c(Br)c(OC)n1,-2.2%,-0.2%,2.8%,/,-5.3%,12.3%,-0.1%,-4.1%
Cc1cc2cc(CN(Cc3ccc4c(c3)OCO4)C(=O)c3ccco3)c(=O)[nH]c2cc1C,-8.6%,?,-7.7%,?,15.8%,3.7%,6.1%,?
CCN(CC)CCC(c1cc(OC)c(OC)c(OC)c1)c1c(OC)cc(OC)c2c(-c3ccccc3)cc(=O)oc12 (configuration not stated),/,-0.8%,/,29.2%,12.5%,/,/,-9.8%
COc1ccc(NC(=O)Nc2ccc(C(=O)N3CCOCC3)cc2)cc1OC,/,2.1%,0.0%[46.1 µM],0.1%,-11.7%,-7.8%[46.1 µM],/,-8.5%
COC(=O)COc1cccc2c(=O)n(CC(=O)N3CCCCC3)ccc12,/,2.0%,/,-9.7%,15.7%,/,/,-0.4%
CCOc1ccc(-c2nnc(Nc3ccc(S(N)(=O)=O)cc3)c3ccccc23)cc1,-3.3%,/,-9.1%[46.1 µM],-3.6%,/,/,-12.4%,/
Cc1ccc(S(=O)(=O)CCSc2n[nH]c(=O)n2-c2ccccc2)cc1,/,0.7%,13.8%,-24.9%,8.9%,-5.4%,/,0.7%
O=C(O)Cc1ccc(NC(=S)Nc2cccc(Cl)c2Cl)cc1,-3.9%,7.0%,0.1%,-2.5%,-4.2%,1.7%,-6.5%,21.2%
Cc1c(NC(=O)/C=C/C(=O)O)cccc1[N+](=O)[O-],-0.8%,-17.0%,21.9%[14.3 µM],10.5%,-2.0%,-17.2%,4.8%,2.5%
CC(CCO)Nc1nc2c(c(=O)n(C)c(=O)n2C)n1Cc1ccc(Br)cc1 (configuration not stated),-2.1%,/,-27.6%[46.1 µM],0.5%,/,-2.0%[46.1 µM],-7.2%,/
C/C(=N\NC(=O)c1c(Br)c(C)nn1C)c1ccc(NC(=O)c2ccoc2C)cc1,-7.9%,-3.9%,6.8%,25.5%,-4.9%,18.7%,?,-7.5%
COc1ccc(OC)c(CNC(=O)Nc2cn(CC(C)C)c(=O)c3ccccc23)c1,-12.2%,/,-5.9%[46.1 µM],-7.6%,/,/,?,/
Nn1c(Cc2cccc3ccccc23)nnc1SCC(=O)NC1CCS(=O)(=O)C1 (configuration not stated),-1.0%,1.8%,4.4%,14.5%,3.0%,-5.4%,-5.6%,-5.0%
N/C(=N\O)c1ccc(Oc2ccccc2Cl)c([N+](=O)[O-])c1,/,-6.3%,/,-2.8%,3.3%,/,/,0.4%
COCCN(CCOC)C(=O)C1CCCN(S(=O)(=O)c2ccc(NC(=O)OC)cc2)C1 (configuration not stated),/,2.3%,/,-11.3%,1.9%,/,/,4.5%
CCOC(=O)Cc1c(C)nc2cc(-c3ccc(C(C)(C)C)cc3)[nH]n2c1=O,1.6%,-11.9%,2.0%,1.4%,8.1%,?,7.8%,4.3%
Brc1ccc(OCCOCCN2CCOCC2)cc1,1.7%,2.8%,3.0%,/,0.2%,13.0%,3.5%,-2.4%
Cc1cc(C)cc(C(=O)Oc2cc(C)[nH]c(=O)c2[N+](=O)[O-])c1,/,-2.0%,/,-0.2%,-15.8%,/,/,-24.2%
CCOC(=O)N1CCC(NC(=O)C2CCCCN2S(=O)(=O)c2ccc(F)cc2)CC1 (configuration not stated),0.3%,-1.1%,/,-17.0%,1.1%,1.0%,-7.4%,?
CC(C)CN(C(=O)CCC(=O)OC(C)C(=O)Nc1cccc(C#N)c1)c1c(N)n(CC(C)C)c(=O)[nH]c1=O (configuration not stated),/,-0.2%,-2.0%,-5.0%,6.0%,1.3%[46.1 µM],/,/
O=C(NCCCN1CCN(c2ccccc2F)CC1)c1ccc2nc(N3CCCCC3)sc2c1,-3.1%,/,?,-8.3%,/,?,6.1%,/
NC(=S)NC(c1ccccc1)c1ccncc1 (configuration not stated),/,/,9.7%,-15.5%,3.0%,-5.1%[46.1 µM],/,/
NNc1ccc(Cl)nn1,/,-1.5%,4.2%,-6.4%,-1.3%,0.5%[46.1 µM],/,-2.9%
O=C(Nc1nnc(-c2cccc(F)c2)s1)Nc1ccccc1F,/,-0.6%,?,26.0%,7.8%,8.2%[46.1 µM],/,2.3%
Cc1ccc(S(=O)(=O)CCC(=O)Nc2nnc(-c3ccco3)o2)cc1,/,2.2%,-1.5%,-23.8%,-3.4%,?,/,/

# Limited to StopGo reporter, for two of the compounds above:
SMILES	StopGo reporter
O=C(NCCCN1CCN(c2ccccc2F)CC1)c1ccc2nc(N3CCCCC3)sc2c1	-8.3%
NC(=S)NC(c1ccccc1)c1ccncc1 (configuration not stated)	-15.5%

# Screening data deposited in PubChem by National Center for Advancing Translational Sciences (NCATS).
